miR-21 FLuc – miR-21 reporter, rising signal | HeLa miR-21 FLuc reporter, luciferase, 48 h | Potency, µM (doses to about 38.3 µM), inactives show top-dose reporter change, positive = more light | 340,000 tested, under 10 active | AID 2288; active = well fitted rising curve with a large enough effect; inconclusive = small, poorly fitted or top-dose-only effect; inactive = no such curve, though single readings can be large or run the other way;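 also: % of control where 0% means no effect; miR-21 action dims this reporter so a rising signal means less miR-21 action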
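HeLa miR-21-FLuc reporter line, endogenous miR-21; 2000 cells/well in DMEM/10% FBS; compound titration up to ~40uM final, 48 h, 37 degree Celsius; luciferase detection reagent, 15 min lysis, CCD luminescence.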
Rango-impB inh – Rango-importin beta binding inhibition. Q14974. Rango CFP/YFP FRET sensor + importin beta, 45 min. 340,000 tested, 0.031% active. AID 540263. Potency, µM (titrated, usually from 92.2 µM), without a hit: at the top dose inhibition of complex formation; active = rising FRET ratio curve, often small or poorly fitted; inconclusive = mostly compound fluorescence or quenching in the first reads; inactive = flat curves in all reads;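 also: potency is read from the fitted curve at half-maximal effect; 0% = DMSO wells and 100% = buffer wells lacking importin beta; nearly all actives have a fitted effect of over 15% in size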
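FRET biosensor (snurportin 1 IBB flanked by EYFP and cerulean), 50 nM, with compound 5 min, then 0.125 microM importin beta in PBS, 1 mM DTT, 0.02% Tween-20, 0.1% BSA. CFP/YFP ratio read after 45 min at room temperature; pre-read flags interference.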
GLA inh pH 4.5 – alpha-galactosidase A (human) inhibition, pH 4.5 | AID 1467 | activity change, negative = inhibition, % at 105 µM | 230,000 tested, under 10 active | P06280 | purified enzyme, 4-MU-alpha-Gal fluorescence, pH 4.5; inconclusive = small, poorly fitted or top-dose-only inhibition, or a rising curve; inactive = flat fitted curve, though single readings scatter; no compound was filed as active;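 also: 0% = full activity with enzyme and -100% = basal without enzyme; dose as in the result columns while the protocol names 77 µM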
Target sequence (P06280 whole entry, looked up): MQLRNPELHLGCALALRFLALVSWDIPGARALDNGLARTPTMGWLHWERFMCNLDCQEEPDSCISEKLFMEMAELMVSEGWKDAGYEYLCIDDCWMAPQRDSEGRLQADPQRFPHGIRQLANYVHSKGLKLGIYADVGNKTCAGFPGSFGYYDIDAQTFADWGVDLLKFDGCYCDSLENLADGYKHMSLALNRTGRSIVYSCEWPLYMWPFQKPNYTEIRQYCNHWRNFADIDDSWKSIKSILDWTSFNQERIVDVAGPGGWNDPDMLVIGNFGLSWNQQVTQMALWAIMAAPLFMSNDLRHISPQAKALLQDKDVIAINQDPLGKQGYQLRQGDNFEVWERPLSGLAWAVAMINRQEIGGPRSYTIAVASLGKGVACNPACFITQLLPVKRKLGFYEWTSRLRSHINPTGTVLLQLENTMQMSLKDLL
Rango release inh – inhibition of RanGTP-driven Rango-importin beta dissociation; O95149+P62826; Biochemical FRET Rango-importin beta, RanGTP-induced dissociation; Potency, µM (series often up to 46.1 µM), for the others: at the highest dose activity change, negative = inhibition; 340,000 tested, 0.071% active; AID 540253; active means falling FRET ratio curve, often poorly fitted, with flat reads before Ran was added; inconclusive means other falling curves, or compound fluorescence or quenching; inactive means flat or rising ratio curve;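 also: potency is read from the fitted curve at half-maximal effect; % of control where 0% means no effect; nearly all actives have a fitted effect of over 45% in size; -100% = wells without RanGTP and RCC1; the record marks most hits as doubtful in a second field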
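Two FRET readings bracket the reaction: one 5 min after compound meets Rango–importin beta, another 45 min after RanGTP-RCC1 (0.6 uM Ran, 0.2 uM RCC1, 2 mM GTP) is added. Only the second defines inhibition.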
* marks the source's active call; other numbers are inactive results; ? = inconclusive; · = not tested or not shown; & = joins results of further samples. The list is partial, so the mix of outcomes need not match the whole.

No.	Compound	miR-21 FLuc	Rango-impB inh	GLA inh pH 4.5	Rango release inh
1	COc1ccc(NC(=O)Cn2nnc(C(=O)NCc3cccs3)c2N)c(OC)c1	2%	-2.5%	·	-15%
2	CC1CCC(C(=O)NC(C(=O)N2CCc3ccccc3C2)C(C)C)CC1 (stereo unspecified)	-6%	-0.2%	5	8%
3	CC(NC(=O)CCCc1ccccc1)c1ccncc1 (stereo unspecified)	-14%	3.9%	·	0%
4	Cc1ccc(NC(=O)CSc2ncc(S(=O)(=O)c3ccccc3)c(=O)[nH]2)cc1C	1%	-6.8%	11	8%
5	COC(=O)[C@@]1(Cc2ccc(OC)cc2)[C@H]2c3cc(C(=O)N(C)C)[nH]c3C[C@H]2CN1C(=O)c1ccccc1	-9%	-0.2%	7&-2	-2%
6	O=C1CC(=O)CC(c2ccco2)C1	0%	-2.0%	-3	-10%
7	CCSc1ccc([C@@H]2[C@@H]3C(=O)N(C)C(=O)[C@@H]3[C@]3(C(=O)OC)CCCCN23)cc1	·	-0.9%	·	-4%
8	Cc1nnc(SCC(=O)NNC(=O)c2ccccc2)n1-c1ccccc1	-3%	-3.5%	0	3%
9	CCOc1ccc(N(CC(=O)NC2CCCCCC2)S(=O)(=O)c2ccccc2)cc1	4%	0.9%	·	-4%
10	C=CCNc1oc(-c2cccc(Cl)c2)nc1C#N	·	1.7%	·	13%
11	CCc1nc2ccccc2c(C(=O)OCC(=O)Nc2ccc(S(=O)(=O)N3CCOCC3)cc2)c1C	25%	0.6%	-15	-7%
12	COc1cccc(/C=C(/C#N)c2ccc(F)cc2)c1OCc1cccc(C(=O)O)c1	-18%	-4.4%	14	10%
13	Cc1nc(CS(=O)(=O)c2ccccn2)sc1C(=O)NNC(=O)c1ccccc1	-6%	-0.6%	2	-3%
14	CCOc1ccccc1Cn1c(=O)oc2ccc(C)cc21	-18%	-0.3%	0	2%
15	CN(C)c1ccc(C(CNC(=O)c2ccccc2)c2c[nH]c3ccccc23)cc1 (stereo unspecified)	-4%	-0.6%	-11	-2%
16	Cc1ccc(OCC(=O)N/N=C/c2cc([N+](=O)[O-])ccc2N2CCCCC2)cc1	-4%	-2.7%	-4	-13%
17	COc1cccc(NC(=O)Nc2cc(C(=O)O)ccc2C)c1	1%	-1.5%	-6	-6%
18	CCC(C)(C)NC(=O)C(C)OC(=O)c1nsc(Cl)c1Cl (stereo unspecified)	-4%	9.1%	-4	?
19	CCc1ccc(NC(=O)CSc2nnc(CNC(=O)c3cccs3)o2)cc1	5%	-0.3%	·	34%
20	O=[N+]([O-])c1cccc(-c2noc(-c3cccs3)n2)c1	-21%	-0.1%	0	1%
21	COc1ccc(-c2nnc(SCC(=O)NC(C)c3ccccc3)o2)cc1 (stereo unspecified)	-10%	-0.2%	3	-13%
22	CC1(C)CC(=O)C(Sc2ccc(Br)cc2)=C(O)C1	3%	-2.6%	-1	1%
23	CCC(C)N(C(=O)COC(=O)c1ccccc1SCC(=O)N1CCCC1)C1CCS(=O)(=O)C1 (stereo unspecified)	-4%	2.7%	·	5%
24	CC(CN1CCOCC1)c1ccccc1 (stereo unspecified)	0%	3.2%	7	7%
25	CC(=O)N1CCN(C(=O)c2ccc(Cl)c(S(=O)(=O)N3CCCCCC3)c2)CC1	·	-0.1%	·	1%

Ordered by the number under miR-21 FLuc (lowest first): four of the compounds above
No.	Compound	miR-21 FLuc	Rango-impB inh	GLA inh pH 4.5	Rango release inh
20	O=[N+]([O-])c1cccc(-c2noc(-c3cccs3)n2)c1	-21%	-0.1%	0	1%
5	COC(=O)[C@@]1(Cc2ccc(OC)cc2)[C@H]2c3cc(C(=O)N(C)C)[nH]c3C[C@H]2CN1C(=O)c1ccccc1	-9%	-0.2%	7&-2	-2%
23	CCC(C)N(C(=O)COC(=O)c1ccccc1SCC(=O)N1CCCC1)C1CCS(=O)(=O)C1 (stereo unspecified)	-4%	2.7%	·	5%
17	COc1cccc(NC(=O)Nc2cc(C(=O)O)ccc2C)c1	1%	-1.5%	-6	-6%

Other structures
No.	Compound	miR-21 FLuc	Rango-impB inh	GLA inh pH 4.5	Rango release inh
26	O=C(CSc1nnc(-c2ccc3c(c2)OCO3)o1)Nc1c(F)cccc1F	·	-2.4%	·	1%
27	Cc1cc(C)n2nc(SCC(=O)N3CCCC3)nc2n1	·	-1.2%	·	0%
28	COc1cc(NC(=O)CN2C(=O)NC(c3ccccc3)(c3ccccc3)C2=O)cc(OC)c1	9%	1.8%	·	-6%
29	COc1cccc(NC(=O)COC(=O)/C=C/c2ccco2)c1	·	?	·	?
30	O=c1c2ccccc2[nH]c(=S)n1CCCN1CCN(c2ccccc2F)CC1	-8%	0.0%	·	-8%
31	COc1ccc(CC(=O)N2CCN(C(=O)c3ccco3)CC2)cc1	-2%	-4.0%	-2	31%
32	O=C(Cc1ccc(-n2c(=O)[nH]c3ccsc3c2=O)cc1)NCc1cccnc1	0%	6.1%	-10	11%
33	O=C(OCC(=O)N1CCN(S(=O)(=O)c2ccccc2)CC1)C1CCC1	·	0.5%	·	37%
34	CC(C)CNC(=O)COC(=O)CNC(=O)c1cc(Cl)cc([N+](=O)[O-])c1	-1%	-3.0%	3	10%
35	COc1ccc(NC(C)=O)cc1S(=O)(=O)Nc1ccc(S(=O)(=O)N2CCCCC2)cc1	·	-1.8%	·	-14%
36	COc1ccc(CCn2c(-c3ccco3)nc3ccccc3c2=O)cc1OC	21%	-1.2%	-9	-7%
37	CC1CN(S(=O)(=O)c2cccs2)CC(C)O1 (stereo unspecified)	-9%	4.8%	-2	20%
38	COc1ccc(NC(=O)Cc2csc(NC(=O)Nc3ccccc3OC)n2)c(OC)c1	·	-5.5%	·	7%
39	CCOc1ccc(CCNC(=O)COC(=O)c2nc(Cl)ccc2Cl)cc1OCC	·	-2.1%	·	-1%
40	Cn1c(=O)c2c(ncn2CC(=O)NC[C@H]2O[C@@H](n3cnc4c(N)ncnc43)[C@H](O)[C@@H]2O)n(C)c1=O	·	-3.3%	·	0%
41	O=C(CCN1CCN(C/C=C/c2ccccc2)CC1)Nc1ccc(Cl)cc1	8%	-0.3%	-16	-8%
42	Cc1nnc(SCC(=O)Nc2ccc3c(c2)OCCO3)n1CC1CCCO1 (stereo unspecified)	-2%	9.2%	-1	1%
43	N=C(c1ccc([N+](=O)[O-])cc1)N1CCCCCC1	1%	0.5%	11	0%
44	CCC(C(=O)Nc1sc(C(N)=O)c(C)c1C(=O)OC)c1ccccc1 (stereo unspecified)	5%	-1.0%	-5	-14%
45	CCCCCCCN1C(Nc2ccccc2)=NC[C@@H]1Cc1ccccc1	26%	3.8%	·	3%
46	CCOC(=O)N1CCc2c(sc3c2c(=O)n(Cc2ccccc2)c(=O)n3Cc2ccccc2F)C1	0%	-1.1%	-8	0%
47	Nc1[nH][nH]c(=O)c1N=Nc1ccc2c(c1)OCO2	-49%	4.6%	-14	-12%
48	Cc1c(C(=O)N2CCCCC2)c(S(=O)(=O)NCc2ccc(F)cc2)c(C)n1C	1%	4.4%	·	4%
49	COCCCNC(=O)CCn1c(=O)c2ccccc2n(CC(=O)NCCC2=CCCCC2)c1=O	5%	-0.8%	-4	-4%
50	O=C(CC1CCCC1)Nc1ccc2c(c1)CCC2	-55%	-1.3%	-24	-4%

Sorted by SMILES length (lowest first): 3 of the compounds above.
No.	Compound	miR-21 FLuc	Rango-impB inh	GLA inh pH 4.5	Rango release inh
50	O=C(CC1CCCC1)Nc1ccc2c(c1)CCC2	-55%	-1.3%	-24	-4%
29	COc1cccc(NC(=O)COC(=O)/C=C/c2ccco2)c1	·	?	·	?
32	O=C(Cc1ccc(-n2c(=O)[nH]c3ccsc3c2=O)cc1)NCc1cccnc1	0%	6.1%	-10	11%

Continued.
No.	Compound	miR-21 FLuc	Rango-impB inh	GLA inh pH 4.5	Rango release inh
51	COc1ccc(C(=O)NC2CCN(Cc3c(F)cccc3Cl)CC2)cc1OC	-1%	4.2%	·	-13%
52	O=C(CNC(=O)c1ccccc1)N/N=C/c1cc(Br)ccc1O	28%	?	-1	-27%
53	Cc1ccc2oc(C(=O)N(CCO)Cc3ccccc3)c(C)c2c1	-13%	2.4%	·	3%
54	CC1CCCN(C(=O)CSc2nnc3n(C4CCCC4)c(=O)c4ccccc4n23)C1 (stereo unspecified)	0%	-2.5%	0	4%
55	COc1ccc(NC(=O)c2cc(OC)c(OC)c(OC)c2Br)cc1OC	-3%	-0.6%	-10	2%
56	CCOc1ccc(N(C(C)C(=O)NC2CCCCCC2)S(C)(=O)=O)cc1 (stereo unspecified)	-10%	-0.1%	-2	-15%
57	CCOC(=O)C1CCN(CCCSc2ccc(Cl)cc2)CC1	1%	4.9%	·	2%
58	O=C(CCCN1C(=O)c2cccc3cccc(c23)C1=O)N1CCN(c2ccc(F)cc2)CC1	-4%	-5.7%	5	-3%
59	COn1c(=O)c(-c2ccc(F)cc2)[n+]([O-])c2ccccc21	1%	-1.3%	·	-8%
60	O=C(COC(=O)c1cnccn1)NCc1ccc2c(c1)OCO2	-1%	-1.9%	3	0%
61	COC(=O)Cn1nc(-c2ccccc2)n(-c2ccccc2)c1=S	1%	-11%	3	7%
62	COc1cc(CNCCc2ccccc2F)ccc1OCC(=O)N1CCCCC1	-8%	-0.4%	·	7%
63	O=S(=O)(c1ccc(F)c(F)c1)N1CCC2(CC1)OCCO2	-2%	-4.2%	·	10%
64	C=CCc1c(C)nc(-c2ccccc2)nc1Nc1ccccc1O	-7%	4.1%	?	1%
65	Cc1ccc(Cn2nnnc2CN2CCC(NC(=O)c3ccc(Br)cc3)CC2)cc1	4%	5.8%	-1	-16%
66	CCCc1cc(=O)[nH]c(SCC(=O)NC2CCCc3ccccc32)n1 (stereo unspecified)	0%	-0.2%	-13	14%
67	O=S(=O)(Cc1ccccc1)c1cnc2ccccc2n1	21%	0.2%	0	-19%
68	Cn1c(=O)[nH]c(=O)c2[nH]c(NCCCN3CCOCC3)nc21	-4%	-0.3%	-16	-4%
69	Cc1cc(Cn2nc(C(=O)NCc3cccc(C(F)(F)F)c3)cc2-c2ccccc2)on1	·	2.9%	·	7%
70	CCCCNC(=O)CO/N=C(\C)c1cc2ccccc2o1	-46%	-11%	5	16%
71	Cn1c(=O)[nH]c(=O)c2c1nc(SCCO)n2CC(O)COc1ccccc1 (stereo unspecified)	-5%	2.0%	8	0%
72	N/C(CCS(=O)(=O)c1ccc(Cl)cc1)=N\OC(=O)c1ccccc1C(F)(F)F	?	6.0%	-10	-2%
73	CC1CC(C)CN(C(=O)c2ccc3c(=O)n(Cc4ccc5c(c4)OCO5)c(=S)[nH]c3c2)C1 (stereo unspecified)	-8%	-4.8%	7	9%
74	Cc1cc(OCC(=O)Nc2ccccc2C)no1	·	-3.9%	·	-2%
75	O=C(NC1CCCC1)c1cccc2c1C(=O)c1ccc(Cl)cc1S2(=O)=O	·	-0.2%	·	-4%

Among those listed so far, these have a CF3 group:
No.	Compound	miR-21 FLuc	Rango-impB inh	GLA inh pH 4.5	Rango release inh
69	Cc1cc(Cn2nc(C(=O)NCc3cccc(C(F)(F)F)c3)cc2-c2ccccc2)on1	·	2.9%	·	7%
72	N/C(CCS(=O)(=O)c1ccc(Cl)cc1)=N\OC(=O)c1ccccc1C(F)(F)F	?	6.0%	-10	-2%

Following part.
No.	Compound	miR-21 FLuc	Rango-impB inh	GLA inh pH 4.5	Rango release inh
76	CCCC(=O)NC(c1ccc2c(c1)OCO2)c1cc(Cl)c2cccnc2c1O (stereo unspecified)	?	?	-8	?
77	CC(=O)c1c(C)[nH]c(C(=O)OCC(=O)N2CCCC2=O)c1C	·	-1.4%	·	-13%
78	Cc1ccc(C(C)C)c(O)c1C(=O)O	·	2.3%	·	?
79	Cc1ccc(CNC(=S)Nc2ccc(NS(=O)(=O)c3ccc(C)cc3)cc2)cc1	16%	-2.6%	·	1%
80	CCOC(=O)c1c(S(=O)(=O)Nc2cccc(Cl)c2)c(C)n(C)c1C	-1%	-3.1%	·	-17%
81	CCC(Sc1nc(=O)cc(N)n1-c1cccc(C)c1)C(=O)Nc1cc(C)on1 (stereo unspecified)	10%	0.4%	-3	9%
82	N#CC1=C(C=Nc2ccccc2O)CCC1	-6%	-0.4%	-13	7%
83	O=C(CSc1ncn[nH]1)Nc1ccc2c(c1)CCC2	-10%	0.0%	3	-3%

Screening data deposited in PubChem by National Center for Advancing Translational Sciences (NCATS).
